rRNA inh HTS: inhibits bacterial ribosomal RNA function over humanized ribosomes; E. coli WT GFP vs humanized-ribosome RFP mutants, fluorescence, 24 h; active compounds read low; DMSO median 0, no signal -100; GFP signal change (wild-type ribosome), % (concentration not given with the values); hit rate 1.6% among 350,000;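 active means significant combined selectivity score with lowered wild-type GFP, culture density cut under 30%, mutant RFP and density less affected; inactive means any of these conditions unmet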; further: one replicate is shown; some compounds called inactive have numbers as strong as hits
MLL AF4-AF9 inh: inhibitors of human MLL-AF4/AF9 interaction; P42568; AlphaScreen, biotin-AF4 peptide binding to FLAG-AF9; inhibition, % at 10 µM; hit rate 0.47% among 350,000; AID 651704;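 active means every replicate reaching a set inhibition limit, whatever the replicate mean, cut at about 25% in these data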;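 further: 0% = plate neutral control median and 100% = total signal loss; the record names both 10 and 1 µM as test concentration; the first replicate is given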
Target sequence (P42568 whole entry, looked up): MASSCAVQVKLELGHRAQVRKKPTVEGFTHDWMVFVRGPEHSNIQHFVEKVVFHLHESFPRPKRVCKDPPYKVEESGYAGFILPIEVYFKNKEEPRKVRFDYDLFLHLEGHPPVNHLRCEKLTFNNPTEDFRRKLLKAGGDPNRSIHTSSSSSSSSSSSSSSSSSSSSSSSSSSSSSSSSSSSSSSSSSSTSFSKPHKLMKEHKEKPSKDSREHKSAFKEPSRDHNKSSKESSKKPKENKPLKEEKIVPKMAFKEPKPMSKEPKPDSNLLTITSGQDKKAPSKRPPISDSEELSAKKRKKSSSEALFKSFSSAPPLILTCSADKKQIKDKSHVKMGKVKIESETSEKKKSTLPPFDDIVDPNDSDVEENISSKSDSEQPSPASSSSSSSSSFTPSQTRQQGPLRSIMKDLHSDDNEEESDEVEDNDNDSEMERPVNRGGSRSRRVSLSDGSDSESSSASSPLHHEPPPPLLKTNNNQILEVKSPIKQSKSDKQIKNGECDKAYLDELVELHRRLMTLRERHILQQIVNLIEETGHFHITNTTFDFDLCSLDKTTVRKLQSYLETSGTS
rRNA inh HTS OD600: also measured in rRNA inh HTS; calls as there; OD600 change, %; measured here: OD600 growth;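 optical density of the mix in the first replicate; 0 = DMSO median and -100 = no signal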
rRNA inh HTS RFP: further read-out of rRNA inh HTS, marked with its call; RFP signal change, %; measured here: RFP humanized mutant strains;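 first replicate; 0 = DMSO median and -100 = no signal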
* = called active by the depositor; & = joins results of further samples. These rows are one share of the data; rates above refer to the full screens.

O=C(C[C@H]1CC[C@@H]2[C@H](COC[C@H](O)CN2C(=O)Nc2cccc(F)c2)O1)NCCCN1CCOCC1 was read as rRNA inh HTS -23, MLL AF4-AF9 inh -2.4, rRNA inh HTS OD600 -26 and rRNA inh HTS RFP 1.4.
For COc1ccc2c3c([nH]c2c1)[C@H](CO)N(CC1CC1)CC31CN(C(=O)C2CCOCC2)C1 the results were rRNA inh HTS 2, MLL AF4-AF9 inh 3.7, rRNA inh HTS OD600 5 and rRNA inh HTS RFP 0.2.
Screening Cc1cc(C(O)c2ncc(-c3ccccc3C)[nH]2)ccc1F (configuration not stated) returned rRNA inh HTS -11, MLL AF4-AF9 inh 6.5, rRNA inh HTS OD600 -22 and rRNA inh HTS RFP 2.4.
Screening Cc1noc(C)c1S(=O)(=O)N(C)C[C@H]1OCCCC[C@@H](C)Oc2ccc(NC(=O)NC3CCCCC3)cc2C(=O)N([C@@H](C)CO)C[C@@H]1C returned rRNA inh HTS -2, MLL AF4-AF9 inh -0.3, rRNA inh HTS OD600 -1 and rRNA inh HTS RFP 0.5.
`C[C@@H]1CCCCO[C@@H](CN(C)C(=O)NC2CCCCC2)[C@@H](C)CN([C@@H](C)CO)C(=O)c2cc(NC(=O)Nc3cccc4ccccc34)ccc2O1` gave rRNA inh HTS -1, MLL AF4-AF9 inh -2.6, rRNA inh HTS OD600 1 and rRNA inh HTS RFP -1.4.
CO[C@H]1CN(C)C(=O)c2cc(NC(C)=O)ccc2OC[C@@H](C)N(C(=O)CN(C)C)C[C@@H]1C was read as rRNA inh HTS 0, MLL AF4-AF9 inh -2.1, rRNA inh HTS OD600 8 and rRNA inh HTS RFP -2.7.
O=C(C1CCC1)N1CC(=O)N2[C@H](CO)[C@H](c3ccc(-c4ccccc4F)cc3)[C@H]2C1 was read as rRNA inh HTS 0, MLL AF4-AF9 inh -7.0, rRNA inh HTS OD600 -7 and rRNA inh HTS RFP 1.3.
CN(C)c1ccc2c(c1)[C@@H]1C[C@@H](CC(=O)NCc3ccccn3)O[C@@H](CO)[C@@H]1O2 was read as rRNA inh HTS 5, MLL AF4-AF9 inh 2.5, rRNA inh HTS OD600 21 and rRNA inh HTS RFP 3.3.
`C[C@H]1CN([C@@H](C)CO)C(=O)c2cc(C#CCN(C)C)cnc2O[C@H]1CN(C)C(=O)CN1CCOCC1` gave rRNA inh HTS 7, MLL AF4-AF9 inh -1.7, rRNA inh HTS OD600 12 and rRNA inh HTS RFP -3.8.
`C[C@H]1CN([C@@H](C)CO)C(=O)c2cccc(NC(=O)c3ccncc3)c2O[C@@H]1CN(C)Cc1ccc2c(c1)OCO2` gave rRNA inh HTS 1, MLL AF4-AF9 inh 13, rRNA inh HTS OD600 6 and rRNA inh HTS RFP 0.7.
For CCCCCNC(=O)C(c1ccccc1)n1c(=O)c(-c2cc3ccccc3[nH]2)nc2ccccc21 (configuration not stated) the results were rRNA inh HTS 19, MLL AF4-AF9 inh -28, rRNA inh HTS OD600 22 and rRNA inh HTS RFP 4.1.
For CCCN1[C@@H]2c3cccc(=O)n3C[C@H]1[C@H](CO)[C@H]2C(=O)Nc1ccccc1 the results were rRNA inh HTS 2, MLL AF4-AF9 inh -4.0, rRNA inh HTS OD600 1 and rRNA inh HTS RFP -0.7.
O=C(Nc1ccccc1Oc1ccccc1)[C@@H]1O[C@H](CO)[C@H](O)[C@H](O)[C@H]1O was read as rRNA inh HTS 14, MLL AF4-AF9 inh -0.2, rRNA inh HTS OD600 9 and rRNA inh HTS RFP 5.5.
O=C(NCc1cccnc1)c1cc(C2CCCCN2C(=O)c2ccc(Cl)cc2)on1 (configuration not stated) was read as rRNA inh HTS -3, MLL AF4-AF9 inh -1.6, rRNA inh HTS OD600 -1 and rRNA inh HTS RFP 2.4.
`CCNC(=O)C[C@@H]1CC[C@H]2[C@H](COc3ccc(NC(=O)c4cccc(OC)c4)cc3C(=O)N2C)O1` gave rRNA inh HTS 1, MLL AF4-AF9 inh -7.8, rRNA inh HTS OD600 6 and rRNA inh HTS RFP 0.0.
COc1ccc(-c2ccc([C@H]3[C@@H](CO)N(C(=O)CN(C)C)[C@H]3C#N)cc2)cc1 was read as rRNA inh HTS 6, MLL AF4-AF9 inh 2.9, rRNA inh HTS OD600 0 and rRNA inh HTS RFP -7.4.
CC(=O)N[C@@H]1C=C[C@@H](CC(=O)NCc2ccc(Cl)cc2)O[C@@H]1CO was read as rRNA inh HTS 2&16, MLL AF4-AF9 inh -2.0&-5.3, rRNA inh HTS OD600 1&19 and rRNA inh HTS RFP -2.8&1.9.
Screening C[C@@H]1CN([C@H](C)CO)C(=O)c2cc(NS(C)(=O)=O)ccc2O[C@H]1CN(C)Cc1ccc(C(=O)O)cc1 returned rRNA inh HTS 5, MLL AF4-AF9 inh -1.8, rRNA inh HTS OD600 -3 and rRNA inh HTS RFP 0.3.
`CC(=O)N1[C@H](CO)[C@H]2c3ccccc3N(S(=O)(=O)c3cccc(C)c3)C[C@H]21` gave rRNA inh HTS -3, MLL AF4-AF9 inh -3.0, rRNA inh HTS OD600 2 and rRNA inh HTS RFP 1.4.
Screening O=C(C[C@@H]1C[C@@H]2c3cc(NC(=O)NC4CCCC4)ccc3O[C@@H]2[C@@H](CO)O1)NCCc1ccccc1 returned rRNA inh HTS 2, MLL AF4-AF9 inh -0.5, rRNA inh HTS OD600 5 and rRNA inh HTS RFP -1.8.
Screening C[C@@H]1CN([C@@H](C)CO)S(=O)(=O)c2ccc(-c3ccc(F)cc3)cc2O[C@@H]1CN(C)Cc1ccccc1C(=O)O returned rRNA inh HTS -3, MLL AF4-AF9 inh 1.6, rRNA inh HTS OD600 5 and rRNA inh HTS RFP 0.4.
`CCCNC(=O)N1CC2(CCN(C(=O)c3cccnc3)CC2)c2c([nH]c3cc(OC)ccc23)[C@H]1CO` gave rRNA inh HTS -4, MLL AF4-AF9 inh -0.6, rRNA inh HTS OD600 6 and rRNA inh HTS RFP -2.0.
O=C(Nc1cccc(F)c1)N1CC(=O)N2[C@H](CO)[C@@H](c3ccc(C#Cc4cccnc4)cc3)[C@H]2C1 was read as rRNA inh HTS -3, MLL AF4-AF9 inh -2.3, rRNA inh HTS OD600 -10 and rRNA inh HTS RFP -0.8.
For CCCCC[C@@H]1C=C(C(=O)O)[C@H](c2ccc(C#N)cc2)N1S(=O)(=O)c1ccc(C)cc1 the results were rRNA inh HTS -21, MLL AF4-AF9 inh -1.7, rRNA inh HTS OD600 -30 and rRNA inh HTS RFP 1.3.

Two successive entries from above:
O=C(C[C@H]1CC[C@@H]2[C@H](COC[C@H](O)CN2C(=O)Nc2cccc(F)c2)O1)NCCCN1CCOCC1 was read as rRNA inh HTS -23, MLL AF4-AF9 inh -2.4, rRNA inh HTS OD600 -26 and rRNA inh HTS RFP 1.4.
For COc1ccc2c3c([nH]c2c1)[C@H](CO)N(CC1CC1)CC31CN(C(=O)C2CCOCC2)C1 the results were rRNA inh HTS 2, MLL AF4-AF9 inh 3.7, rRNA inh HTS OD600 5 and rRNA inh HTS RFP 0.2.

The list continues.
Screening CC1(C(=O)Nc2cccc(C#N)c2)CCN1C(=O)C/C=C/c1ccccc1 (configuration not stated) returned rRNA inh HTS -5, MLL AF4-AF9 inh -6.8, rRNA inh HTS OD600 -24 and rRNA inh HTS RFP 3.1.
COc1ccc(S(=O)(=O)Nc2ccc3c(c2)C(=O)N([C@@H](C)CO)C[C@@H](C)[C@@H](CN(C)S(=O)(=O)c2cccs2)OCCCC[C@@H](C)O3)cc1 was read as rRNA inh HTS -2, MLL AF4-AF9 inh -1.4, rRNA inh HTS OD600 -1 and rRNA inh HTS RFP -1.0.
`O=S(=O)(N[C@H]1CC[C@@H](CCn2cc(-c3ccccc3F)nn2)O[C@@H]1CO)c1ccc(F)cc1` gave rRNA inh HTS -5, MLL AF4-AF9 inh -4.0, rRNA inh HTS OD600 0 and rRNA inh HTS RFP -0.1.
Screening C[C@@H]1CN([C@H](C)CO)C(=O)c2cc(C#CCN(C)C)cnc2O[C@@H]1CN(C)C(=O)c1cccc(F)c1 returned rRNA inh HTS 1, MLL AF4-AF9 inh -6.1, rRNA inh HTS OD600 -1 and rRNA inh HTS RFP -1.7.
`Cc1noc(C)c1NC(=O)N[C@H]1CC[C@H](CCNC(=O)C2CCCCC2)O[C@H]1CO` gave rRNA inh HTS 3, MLL AF4-AF9 inh -1.5, rRNA inh HTS OD600 5 and rRNA inh HTS RFP 0.3.
`COC(=O)[C@@H]1[C@@H](CO)[C@@H]2Cn3c(ccc(-c4ccncc4)c3=O)[C@@H]2N1Cc1cccc(F)c1` gave rRNA inh HTS -1, MLL AF4-AF9 inh -5.3, rRNA inh HTS OD600 1 and rRNA inh HTS RFP -3.0.
CO[C@H]1CN(C)C(=O)c2ccc(NC(=O)c3ccc(F)cc3)cc2OC[C@H](C)NC[C@H]1C was read as rRNA inh HTS -2, MLL AF4-AF9 inh 0.0, rRNA inh HTS OD600 -5 and rRNA inh HTS RFP 0.6.
Cc1noc(C)c1NC(=O)Nc1ccc2c(c1)C(=O)N([C@@H](C)CO)C[C@H](C)[C@H](CN(C)S(=O)(=O)c1ccc(F)cc1)OCCCC[C@H](C)O2 was read as rRNA inh HTS -1, MLL AF4-AF9 inh 1.1, rRNA inh HTS OD600 -3 and rRNA inh HTS RFP 0.2.
CC=Cc1ccc2n(c1=O)C[C@@H]1[C@@H](CO)[C@H](C(=O)NCCCN(C)C)[C@H]2N1C(=O)c1ccccc1F (mixture of isomers) was read as rRNA inh HTS -2, MLL AF4-AF9 inh -1.0, rRNA inh HTS OD600 -9 and rRNA inh HTS RFP 2.4.
Screening Cc1cn([C@H]2C[C@H](O)[C@@H](/C=C/C(=O)N3CCN(Cc4ccc(F)cc4)CC3)O2)c(=O)[nH]c1=O returned rRNA inh HTS -1, MLL AF4-AF9 inh -1.0, rRNA inh HTS OD600 8 and rRNA inh HTS RFP -6.5.
Screening COc1ccc(N2CCN(C(=O)C(=O)c3cccc([N+](=O)[O-])c3)CC2)cc1 returned rRNA inh HTS -4.6*, MLL AF4-AF9 inh 9.0, rRNA inh HTS OD600 13* and rRNA inh HTS RFP 5.6*.
`O=C(N[C@@H]1CC[C@H](CCNC(=O)C2CCCCC2)O[C@@H]1CO)c1ccncc1` gave rRNA inh HTS 4, MLL AF4-AF9 inh -0.1, rRNA inh HTS OD600 1 and rRNA inh HTS RFP 1.0.
Screening CCC(=O)Nc1ccc2c(c1)OC[C@H](C)N(Cc1cccnc1)C[C@H](C)[C@H](OC)CN(C)C2=O returned rRNA inh HTS 0, MLL AF4-AF9 inh -26, rRNA inh HTS OD600 -2 and rRNA inh HTS RFP -1.8.
For C[C@@H]1ON(C)[C@H]2C[C@H]3c4[nH]c5ccc(-c6ccc7c(c6)OCO7)cc5c4CCN3C[C@@H]12 the results were rRNA inh HTS -7, MLL AF4-AF9 inh 31*, rRNA inh HTS OD600 -13 and rRNA inh HTS RFP 1.3.
Screening C[C@H](CO)N1C[C@H](C)[C@H](CN(C)C(=O)CCC(F)(F)F)OCc2cnnn2CCCC1=O returned rRNA inh HTS 24&-2, MLL AF4-AF9 inh -1.4&-1.4, rRNA inh HTS OD600 15&0 and rRNA inh HTS RFP 0.2&0.0.
Screening COc1ccccc1CNCCS(=O)(=O)NCc1ccccc1OC returned rRNA inh HTS 1, MLL AF4-AF9 inh 0.5, rRNA inh HTS OD600 3 and rRNA inh HTS RFP 3.5.
CCCNC(=O)Nc1ccc2c(c1)C(=O)N(C)[C@H]1CC[C@@H](CC(=O)OC)O[C@H]1CO2 was read as rRNA inh HTS 0, MLL AF4-AF9 inh -0.6, rRNA inh HTS OD600 -2 and rRNA inh HTS RFP -3.3.
`C[C@@H]1CCCCO[C@@H](CN(C)C)[C@@H](C)CN([C@H](C)CO)C(=O)c2cc(NC(=O)c3ccccc3)ccc2O1` gave rRNA inh HTS 4, MLL AF4-AF9 inh -4.4, rRNA inh HTS OD600 8 and rRNA inh HTS RFP -2.8.

In the list so far, these have an aryl methoxy group:
For COc1ccc2c3c([nH]c2c1)[C@H](CO)N(CC1CC1)CC31CN(C(=O)C2CCOCC2)C1 the results were rRNA inh HTS 2, MLL AF4-AF9 inh 3.7, rRNA inh HTS OD600 5 and rRNA inh HTS RFP 0.2.
`CCNC(=O)C[C@@H]1CC[C@H]2[C@H](COc3ccc(NC(=O)c4cccc(OC)c4)cc3C(=O)N2C)O1` gave rRNA inh HTS 1, MLL AF4-AF9 inh -7.8, rRNA inh HTS OD600 6 and rRNA inh HTS RFP 0.0.
COc1ccc(-c2ccc([C@H]3[C@@H](CO)N(C(=O)CN(C)C)[C@H]3C#N)cc2)cc1 was read as rRNA inh HTS 6, MLL AF4-AF9 inh 2.9, rRNA inh HTS OD600 0 and rRNA inh HTS RFP -7.4.
`CCCNC(=O)N1CC2(CCN(C(=O)c3cccnc3)CC2)c2c([nH]c3cc(OC)ccc23)[C@H]1CO` gave rRNA inh HTS -4, MLL AF4-AF9 inh -0.6, rRNA inh HTS OD600 6 and rRNA inh HTS RFP -2.0.
COc1ccc(S(=O)(=O)Nc2ccc3c(c2)C(=O)N([C@@H](C)CO)C[C@@H](C)[C@@H](CN(C)S(=O)(=O)c2cccs2)OCCCC[C@@H](C)O3)cc1 was read as rRNA inh HTS -2, MLL AF4-AF9 inh -1.4, rRNA inh HTS OD600 -1 and rRNA inh HTS RFP -1.0.
Screening COc1ccc(N2CCN(C(=O)C(=O)c3cccc([N+](=O)[O-])c3)CC2)cc1 returned rRNA inh HTS -4.6*, MLL AF4-AF9 inh 9.0, rRNA inh HTS OD600 13* and rRNA inh HTS RFP 5.6*.
Screening COc1ccccc1CNCCS(=O)(=O)NCc1ccccc1OC returned rRNA inh HTS 1, MLL AF4-AF9 inh 0.5, rRNA inh HTS OD600 3 and rRNA inh HTS RFP 3.5.

Bioassay records as filed in PubChem BioAssay.
